# B2AR ag = beta2AR agonists driving receptor internalization, primary screen, cell-based, FAP fluorogen, flow cytometry | Am2.2-beta2AR cells; reference of the scale not given here | response, % (concentration not given with the values) | 340,000 compounds, 0.43% hits | AID 504454, 2011;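 active = response above a set limit, near 3 SD of response in nonfluorescent compounds, cut at about 42% in these data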;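 note: stock transfer was 100 nL into about 11 µL; a reference agonist was the positive control; negative values mostly stem from fluorescent compounds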
# Ecoli growth = E. coli growth inhibition, primary screen, OD600 | Escherichia coli growth, 23 h; hits give low values | OD600 absorbance (test concentration not listed) | 330,000 compounds, 0.21% hits | AID 1053175, 2014;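 active = OD600 absorbance below the run mean of sample wells minus 3.6 SD, in any replicate, cut at about 0.56 in these data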;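 note: stock transfer was 300 nL into about 60 µL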
# LANA-H2A inh = blockers of LANA interaction with H2A/H2B – biochemical, FP readout, HTS, primary screen. Protein LANA1 (Human herpesvirus 8 type P (isolate GK18)), Q9QR71. cell-free LANA-H2A/H2B peptide, fluorescence polarization. inhibition, % (test concentration not listed). 320,000 compounds, 0.6% hits. AID 2629, 2010; in the data active = inhibition mostly above about 10%, no sharp cut-off; inactive = mostly below about 6.7%;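 note: stock transfer was 7.5 nL into about 10 µL; 0% = median of vehicle wells and 100% = median of positive control wells; one replicate is shown; the record names a cut of 25% in any replicate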
# ALR inh = inhibitors of human ALR sulfhydryl oxidase, primary screen, biochemical, H2O2 detection, HRP-luminol luminescence, single point; purified ALR, DTT oxidation; inhibition, % (concentration not given with the values); 290,000 compounds, 3.8% hits; AID 485317, 2010;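 active = mean and each replicate at 75% or more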;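 note: stock transfer was 7.5 nL into about 7.5 µL; 0% = neutral wells and 100% = wells with inactivated enzyme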
# UCH37 inh = inhibitors of human UCH37 deubiquitinase, primary screen, biochemical, Ub-AMC cleavage, fluorescence. purified proteasome/UCH37. Ubiquitin carboxyl-terminal hydrolase isozyme L5 (Homo sapiens), Q9Y5K5. 330,000 compounds, 0.33% hits. AID 588478, 2011. inhibition, % (no concentration beside the values);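 active = mean of two replicates above 20%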;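 note: 0% = compound-free wells with enzyme and 100% = wells lacking proteasome; stock transfer was 100 nL into about 20 µL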
# Target sequence (Q9Y5K5 whole entry, looked up): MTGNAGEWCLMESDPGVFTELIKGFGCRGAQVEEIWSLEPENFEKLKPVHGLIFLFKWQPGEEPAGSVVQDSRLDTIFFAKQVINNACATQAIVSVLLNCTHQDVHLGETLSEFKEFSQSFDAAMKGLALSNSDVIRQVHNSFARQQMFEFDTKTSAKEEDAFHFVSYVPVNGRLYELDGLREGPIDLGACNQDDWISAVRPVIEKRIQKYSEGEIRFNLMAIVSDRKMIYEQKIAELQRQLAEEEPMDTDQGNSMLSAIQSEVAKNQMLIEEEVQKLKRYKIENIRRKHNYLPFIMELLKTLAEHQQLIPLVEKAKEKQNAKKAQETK
#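 Assay system: Proteasome-bound UCH37. Buffer or medium: pH 7.4 Tris-HCl (50 mM) with ovalbumin, ATP-MgCl2, DTT. Incubation: 30 min preincubation with enzyme, 25 min cleavage at room temperature. Measured by: fluorescence, ex 355 nm, em 460 nm. Read-out basis: percent inhibition. Control set: wells without proteasome as full block, compound-free enzyme plus substrate as uninhibited.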
# FGF22 binding = binders of human FGF22 protein, primary screen, FGF22 synaptogenesis inhibitor project, biophysical, thermal shift, single point | calls only at 9.99 µM | AID 651658, 2012 | Fibroblast growth factor 22 (Homo sapiens), Q9HCT0 | recombinant FGF22 thermal shift, SYPRO orange fluorescence; percent of sucrose octasulfate shift, DMSO zero | 340,000 compounds, 1.5% hits;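 active = melting point raised past a set limit in the mean and every replicate; three in four hits are not shown here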
# Target sequence (Q9HCT0 whole entry, looked up): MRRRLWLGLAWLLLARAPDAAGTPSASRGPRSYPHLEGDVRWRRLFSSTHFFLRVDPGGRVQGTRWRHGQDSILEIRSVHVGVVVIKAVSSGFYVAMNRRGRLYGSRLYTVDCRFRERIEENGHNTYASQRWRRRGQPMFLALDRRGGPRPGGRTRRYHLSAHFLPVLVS
# HNF4A DNA FP = change in binding of human HNF4A to DNA, primary screen, biochemical, fluorescence polarization, FITC-DNA | Hepatocyte nuclear factor 4-alpha (Homo sapiens), P41235 | 1 h | activity change, % at 10 µM | 360,000 compounds, 0.3% hits; in the data active = activity change above about 30%, passing the limit was not always enough;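 note: controls were the assay level and a saturating level of protein; the project sought stronger binding though the title names inhibitors; some compounds called inactive have numbers as strong as hits; positive values seem to mean higher polarization but the record does not say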
# Target sequence (P41235 whole entry, looked up): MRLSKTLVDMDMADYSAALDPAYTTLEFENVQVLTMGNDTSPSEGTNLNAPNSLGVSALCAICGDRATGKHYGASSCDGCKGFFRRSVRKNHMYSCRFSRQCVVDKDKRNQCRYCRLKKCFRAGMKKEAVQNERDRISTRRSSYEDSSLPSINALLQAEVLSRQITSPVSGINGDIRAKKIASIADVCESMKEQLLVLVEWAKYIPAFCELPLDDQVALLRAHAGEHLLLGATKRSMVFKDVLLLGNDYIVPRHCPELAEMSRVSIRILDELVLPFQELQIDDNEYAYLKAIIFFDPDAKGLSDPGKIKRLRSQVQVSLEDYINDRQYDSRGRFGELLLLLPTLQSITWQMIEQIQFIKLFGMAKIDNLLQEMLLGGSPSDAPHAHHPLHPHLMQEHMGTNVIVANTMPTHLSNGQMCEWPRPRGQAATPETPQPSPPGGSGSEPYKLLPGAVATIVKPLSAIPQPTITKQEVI
# The depositor's hits bear a star; i = inactive; / = not tested or not shown; + = active, no number. These rows are one share of the data. The share of hits here may be higher or lower than overall.
SMILES,B2AR ag,Ecoli growth,LANA-H2A inh,ALR inh,UCH37 inh,FGF22 binding,HNF4A DNA FP
Clc1ccc(-c2csc(N3CCCCCC3)n2)cc1,-1,0.71,2.4,10,-1.0,i,-0.1
FC(F)C(F)(F)Oc1cccc(-c2n[nH]c(=S)n2Cc2ccccc2)c1,13,0.68,/,/,1.2,i,1.0
C=C1C[C@H]2[C@@H]3C=C(C)C4=CC(=O)CC[C@]4(C)[C@H]3CC[C@]2(C)[C@@]1(OC(C)=O)C(C)=O,3,/,1.0,-19,4.2,i,-4.9
Cn1cccc1C(C#N)c1ccccc1C#N (stereo unspecified),0,0.67,3.4,1,4.6,i,3.2
Cc1cccc(NS(=O)(=O)c2ccc(C)c(C(=O)NCCCN3CCOCC3)c2)c1,-5,0.68,/,/,0.7,i,-6.0
Cc1onc(-c2c(Cl)cccc2Cl)c1C(=O)NNc1ccccc1,1,0.63,0.6,-5,1.6,i,3.7
C=CCc1cccc2cc(C(=O)Nc3ccc(CC(=O)O)cc3)c(=O)oc12,-12,0.71,3.1,11,9.5,i,-3.8
Cn1c(-c2ccsc2)c(-c2cccs2)c2cc(-c3ccc4[nH]ccc4c3)ccc21,-1,/,1.0,-6,/,i,1.6
COc1cccc(C2c3c(-c4ccccc4)n[nH]c3C(=O)N2c2ccc(C(=O)O)cc2)c1 (stereo unspecified),-4,0.67,-2.4,8,0.7,/,-1.2
CS(=O)(=O)c1ccc(Cl)c(NC(=O)COC(=O)c2ccc(-n3cnnn3)cc2)c1,0,0.69,-5.0,-1,1.0,i,1.1
Nc1[nH]c(N=NC(=O)c2ccccc2O)c2ccccc12,-5,0.68,/,/,13,/,3.7
CC(OC(=O)C1=COCCO1)C(=O)c1ccc(C(C)(C)C)cc1 (stereo unspecified),9,0.69,/,/,5.5,i,-0.6
CCOc1cc(Br)c(/C=C2/C(=O)N(C)C(=S)N2CC(=O)OC)cc1OC,-8,0.7,6.1,-4,0.4,i,0.5
Cc1cccc(N(NC(=O)C(C)(C)O)C(=O)c2ccccc2)c1,4,0.76,-3.0,-2,5.3,/,-1.0
CCC1(C)NC(=O)N(/N=C/c2cc(OC)c(O)c(OC)c2)C1=O (stereo unspecified),-2,/,-1.2,/,/,i,-2.1
CC(=O)Nc1nc2ccc(Br)cc2s1,-1,0.64,3.9,0,3.6,/,-2.3
COc1ccc(-c2csc(NC(=O)C3CSC4(C)CCC(=O)N34)n2)cc1OC (stereo unspecified),-4,0.66,0.3,-13,3.2,i,-1.7
COc1ccc(S(=O)(=O)N(C)c2ccc(C(=O)NCC3CCCO3)cc2)cc1OC (stereo unspecified),0,/,3.9,-1,/,i,-1.2
COCCn1c(C)cc(C(=O)CSc2cc(C)c3ccccc3n2)c1C,2,0.71,5.3,0,2.8,/,-0.9
O=c1/c(=C/c2ccco2)sc2n1CN(c1cccc(Br)c1)CN=2,-2,/,1.7,9,/,/,4.2
CC(=O)Nc1ccc(NC(=O)CCn2c(=O)oc3ccccc32)cc1,-3,0.7,-1.4,-4,0.0,/,-0.7
Cc1n[nH]c(=S)n1-c1cccc(Cl)c1,0,0.7,0.1,94*,3.8,i,3.1
COc1cc(OC)cc(C(=O)NC(C(=O)OCn2nnc3ccccc3c2=O)C(C)C)c1 (stereo unspecified),13,0.69,/,/,1.8,i,-3.3
O=C(COC(=O)c1cc2c(s1)CCCC2)NCc1ccccc1Cl,13,0.68,6.8,-4,2.4,+,1.3
Cc1sc2nc(C(C)Nc3ccccc3N3CCOCC3)[nH]c(=O)c2c1C (stereo unspecified),-1,0.74,-3.1,/,-5.9,/,5.2

# Next part:
SMILES,B2AR ag,Ecoli growth,LANA-H2A inh,ALR inh,UCH37 inh,FGF22 binding,HNF4A DNA FP
Cc1ccc(OCC(=O)O/N=C(\N)c2ccncc2)c(C)c1,4,0.67,-0.7,/,2.3,i,3.9
O=C(NCc1ccc2c(c1)OCO2)c1ccc(Cl)nc1,-2,0.64,7.2,-2,4.2,i,4.1
Cc1ccc(-c2n[nH]c(=S)n2C)cc1Cl,9,0.65,-1.5,/,-0.7,i,1.5
O=C(NCc1ccco1)c1ccc2c(=O)n(CCC3=CCCCC3)c(=O)[nH]c2c1,6,0.75,-0.7,49,-4.8,/,3.4
CCOC(=O)C1CCCN(C(=O)C2CCC(CNS(=O)(=O)c3ccc(NC(C)=O)cc3)CC2)C1 (stereo unspecified),-6,0.69,6.9,-18,1.1,/,1.8
O=C(O)c1ccccc1NCc1cccs1,-9,0.68,-4.5,-8,-30,i,6.2
COc1ccc(C(=O)NNC(=O)c2cc(C)nc3ccccc23)cc1,7,0.7,-1.1,2,3.3,i,-1.9
CCN(CC)S(=O)(=O)c1ccc(N2CCOCC2)c(NC(=O)c2cc(-c3ccccn3)nc3ccccc23)c1,-6,0.73,/,/,3.2,i,0.2
CC(Sc1nc2ccc(Br)cc2[nH]1)C(=O)O (stereo unspecified),-4,0.64,-1.6,-1,1.6,/,-0.5
CCC(=O)Nc1ccc(C(=O)Nc2cccnc2)cc1,-2,0.66,2.1,1,1.2,i,-4.9
Cc1ccc(-n2c(N)c(C(N)=O)sc2=S)cc1,2,0.7,-0.7,19,11,/,-0.1
CC1=CC(C)(C)n2c(O)c(N=N)c3c(C)c(C)cc1c32,26,0.68,0.0,6,7.7,i,-0.5
CCOc1ccc(S(=O)(=O)N2CCN(CN3C(=O)CC4(CCCC4)C3=O)CC2)cc1,-6,0.7,/,/,2.9,i,1.1
COc1ccc(-n2nnnc2SCC(=O)N2CCCC2)cc1OC,-8,0.65,-1.7,-3,0.9,/,1.4
CCc1ccc(CN(C)C(=O)c2cc(COc3ccc(OC)cc3Cl)on2)nc1,7,0.74,1.3,-1,2.0,i,-1.4
Cc1ccccc1NC(=O)CSc1nc2ccccc2c(=O)n1C,5,0.63,0.1,-8,0.7,i,3.4
CCN1CCCC1CN(Cc1cc2cc(OC)ccc2[nH]c1=O)C(=O)NCc1ccccc1 (stereo unspecified),-3,0.72,6.3,-9,-39,/,0.4
CN(CC(=O)Nc1ccc(Cl)cc1)C(=O)CCNC(=O)c1ccc(Cl)cc1,3,0.58,-2.2,-2,0.4,i,-1.4
O=C(CN1CCCCCCC1)N/N=C/c1ccc([N+](=O)[O-])o1,0,/,0.1,-37,/,i,-7.8
CCCCC(=O)Nc1nnc(C2=COCCO2)o1,3,0.71,-3.5,-7,1.2,i,-3.1
O=C(O/N=C1\CCS(=O)(=O)c2sccc21)c1ccccc1,0,/,3.1,-6,/,/,1.0
CCOC(=O)N1CCN(C(=O)Cn2c(C)cc3ccccc3c2=O)CC1,1,0.67,-0.6,-22,-7.8,/,0.0
CCc1ccc(-c2nc(CN3CCCC(C(=O)NCCc4ccc(OC)c(OC)c4)C3)c(C)o2)cc1 (stereo unspecified),16,0.69,0.7,/,2.8,/,1.1
CCOc1ccc(/C=N/NC(=O)Cc2ccccc2)cc1CN1CC2CC(C1)c1cccc(=O)n1C2 (stereo unspecified),6,/,6.2,-9,/,i,-1.3
COc1ccc(C(=O)/C=C/Nc2c(C)n(C)n(-c3ccccc3)c2=O)c(OC)c1,-4,0.68,-1.6,13,16,/,2.5

# The list goes on.
SMILES,B2AR ag,Ecoli growth,LANA-H2A inh,ALR inh,UCH37 inh,FGF22 binding,HNF4A DNA FP
Cc1nc(C(F)(F)F)nc(Nc2ccc(Br)cc2)c1C#N,-6,0.72,-0.2,-2,-115,/,-0.4
O=C(O)c1cc(-c2cccs2)[nH]n1,13,0.71,-4.3,2,1.2,i,2.9
O=C(NCCSCc1ccc(Cl)cc1Cl)c1ccc(CN2CCOCC2)cc1,-1,0.67,-4.7,-18,2.0,/,-1.1
COC(=O)c1ccc(C23CC4(C2)[C@H](CN(Cc2ccc(-c5ccccc5)cc2)[C@@H]4c2ccccc2)C3c2ccc(Cl)nc2)cc1 (stereo partly specified),/,/,-1.1,-4,1.7,i,/
COCCNC(=O)C(=O)c1c(-c2ccccc2)[nH]c2ccccc12,-5,0.68,-0.3,7,8.7,i,-0.4
Cc1ccc(S(=O)(=O)N2CCN(S(=O)(=O)N3CCCCC3)CC2)cc1C,-10,0.66,4.8,3,0.0,i,1.0
COc1cc(-c2noc(C)c2C(=O)NCCO)cc(OC)c1OC,0,0.63,-2.0,-8,5.3,i,2.9
Cc1ccccc1Nc1ccc([N+](=O)[O-])cn1,11,0.6,5.1,-3,9.8,i,0.6
CCOc1ccc(NC(=O)CSc2cn[nH]n2)cc1,6,0.68,/,/,6.3,i,4.7
COc1cccc(NC(=O)C2CCCN(S(C)(=O)=O)C2)c1 (stereo unspecified),-1,0.68,0.5,/,0.8,i,7.6
O=C(NCc1nc2ccccc2[nH]1)C1=C[C@@H](C2CCCCC2)C[C@@H](OCCCCO)O1,-15,/,6.7,-24,4.5,i,5.4
Cc1ccc(NS(=O)(=O)c2cccc(C(=O)N3CCOCC3)c2)cc1,-3,0.76,0.9,-1,0.9,/,1.0
CCCC(=O)NC(c1ccc(OC)cc1)c1ccc2cccnc2c1O (stereo unspecified),3,0.64,0.9,/,1.2,i,-0.5
O=C1CCC(C(=O)Nc2ccccc2N2CCCC2)=NN1,2,0.71,1.7,85*,2.9,i,-2.7
CC(C)c1ccccc1NC(=O)c1ccco1,0,0.71,-5.8,-3,0.4,i,-1.3
CCCCCc1c(C)nc(Nc2ccccc2)[nH]c1=O,-8,0.64,2.8,3,3.5,/,-3.5
O=C(O)c1ccccc1N1C(=O)C2C3c4ccccc4C(Br)(c4ccccc43)C2C1=O (stereo unspecified),1,0.69,-5.3,13,1.7,i,-0.4
Cc1nc2ccccn2c1C(=O)N/N=C/c1ccccc1,5,/,2.1,/,/,i,-1.2
O=C1C2C3C=CC(C2C(=O)N1CCCO)C1C2C(=O)N(CCCO)C(=O)C2C31 (stereo unspecified),9,0.74,-3.4,1,4.8,/,0.2
Cc1oc(-c2ccccc2F)nc1CS(=O)(=O)CC(=O)NCc1ccccc1Cl,2,0.78,1.5,-7,5.0,i,-0.1
O=S(=O)(Nc1cccc(-c2cn3c(n2)SCC3)c1)c1ccccc1F,-5,0.71,0.4,6,2.3,i,7.4
O=[N+]([O-])c1ccc(N2CCN(CCO)CC2)c2ncccc12,-5,0.68,/,/,-3.4,/,-1.2
Cc1ccc(NC(=O)/C(C#N)=C/c2cccs2)c(C)c1,-3,0.73,3.7,12,3.1,/,1.7
CCOc1ccc(-c2nc(CSc3nnc(N)s3)cs2)cc1,11,0.71,2.9,-2,4.1,/,3.4
COC(=O)CN1C(=O)C(C)(C)Oc2ccc(C(=O)Nc3ccccc3F)cc21,9,0.62,-5.0,/,4.2,i,0.6

# Assay outcomes as filed in PubChem BioAssay.
